Screens from PubChem.
miR-21 FLuc – raises the signal of a miR-21 reporter | Potency, µM (titrated, usually from 38.3 µM), for the others: at the top dose reporter change, positive = more light | 340,000 tested, under 10 active | AID 2288 | HeLa miR-21 FLuc reporter, luciferase, 48 h; active = well fitted rising curve with a large enough effect; inconclusive = small, poorly fitted or top-dose-only effect; inactive = no such curve, though single readings can be large or run the other way;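 further: % of control where 0% means no effect; miR-21 action dims this reporter so a rising signal means less miR-21 action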
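Using DMEM plus 10% FBS, HeLa miR-21-FLuc cells are incubated with test compounds (final up to about 40uM) for 48 hours; firefly luciferase signal is then imaged following reagent-mediated lysis.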
Active calls of the source: *; ? = inconclusive.

SMILES	miR-21 FLuc
COc1ccc(C(=O)/C=C/c2cn(CC(O)CN3CCc4ccccc43)c3ccccc23)cc1 (stereo not given)	?
Cc1cccc(CN2CCC(CNC(=O)c3c(C)oc4ncnc(N5CCCCC5)c34)CC2)c1	-5%
COc1ccccc1N1CCN(C(=O)Cn2c(=O)nc(-c3ccccc3)c3cc(Cl)ccc32)CC1	3%
COC(=O)c1ccc([C@H]2Nc3ccc(S(=O)(=O)Nc4ccc(C)cc4)cc3[C@H]3C=CC[C@H]32)cc1	4%
CCc1sc(Nc2ccc(Cl)cc2)nc1-c1cc2cccc(OC)c2oc1=O	7%
CCOc1cccc(C2c3c(oc4ccc(F)cc4c3=O)C(=O)N2CCc2ccc(OC)cc2)c1 (stereo not given)	-12%
CC(C)c1ccc(Nc2sc(C(=O)c3ccccc3)c(N)c2S(=O)(=O)c2ccccc2)cc1	28%
COc1ccc(NC(=O)C2CCN(c3cc(C)nc4c(-c5ccc(Cl)cc5)c(C)nn34)CC2)cc1	2%
COc1ccccc1NC(=O)c1c(NCc2ccc(OC)c(OC)c2OC)sc2c1CCC2	0%
CCOC(=O)c1ccc2c(c1)N(CC(=O)N(C)c1ccccc1)C(=O)c1ccccc1S2	6%
CCCC(=O)Nc1ccccc1C(=O)OCc1cc(=O)n2nc(C(C)C)sc2n1	-32%
Cc1ccc(Nc2c3c(nc4nncn24)CCC3)cc1	-19%
Cc1ccc(C2=Nc3ccccc3N(CC(=O)NCc3ccc(F)cc3)C(=O)C2)cc1C	-35%
CCC1Oc2ccc(C)cc2N(CC(=O)NCc2ccc(OC)cc2)C1=O (stereo not given)	1%
CCOCCc1nn2c(=O)cc(COC(=O)C3CCCCC3)nc2s1	-1%
CN(C)S(=O)(=O)c1ccc2c(c1)nnn2CCNC(=O)Nc1ccc(Br)cc1	8%
Cc1ccc(NCc2ccccc2-c2nnc(-c3ccccc3Cl)o2)c(C)c1	-22%
O=C(Cn1cc(SCc2ccccc2F)c2ccccc21)N1CCCCCC1	0%
Cc1ccccc1-n1c(SCc2ccc(Cl)cc2)nc2[nH]ncc2c1=O	-17%
Cc1csc2nc(COc3ccccc3NC(=O)c3ccco3)cc(=O)n12	-2%
COc1ccc(-n2c(=O)c3sc4ccccc4c3n(CC(=O)N3CCCC3)c2=O)cc1	-1%
CCc1ccccc1NC(=O)Cn1cc2c(n1)CCC(C)C2 (stereo not given)	-16%
CCOC(=O)Cn1c(CN2CCN(c3ccc(OC)cc3)CC2)nc2c1c(=O)[nH]c(=O)n2C	-6%
CCOC(=O)N1CCC(NC(=O)c2cnn(-c3ccc(C)cc3)c2C2CCN(C(=O)OC(C)(C)C)CC2)CC1	1%
Cc1nc2ccccn2c(=O)c1NC(=O)c1c(F)cccc1F	-1%
CCC[C@H]1COCCS(=O)(=O)N1Cc1ccc(Br)cc1	2%
COc1ccc2c(c1)c1c(c(=O)n(-c3cccc(Cl)c3)c(=O)n1CC(=O)N1CCCC1)n2C	-1%
Cc1ccc(NC(=O)c2ccc(CN3C(=O)CCn4nc(C)cc43)cc2)c(Cl)c1	-13%
COc1ccc(N2CCN(c3cc(C)nc4nc(-c5ccc(C)cc5)nn34)CC2)cc1	1%
Cc1cc2nc(-c3cc(NC(=O)c4cc5ccccc5o4)ccc3Cl)oc2cc1C	-19%
CC(C)CNC(=O)N1[C@H](c2cccs2)[C@@H](C)C(=O)[C@@H](C)[C@@H]1c1cccs1	-5%
CCc1nn(CC(=O)NCCN(CC)CC)c(=O)c2cc3occc3n12	-4%
CCOC(=O)C1CCN(c2nc3ccccc3nc2Cl)CC1	-8%
CCOC(=O)C1=C(CN2CCN(c3ccccc3F)CC2)NC(=O)NC1c1ccc(OC)cc1 (stereo not given)	1%
COc1ccc(-c2cn3nc(N4CCCC(C(=O)Nc5ccccc5F)C4)sc3n2)cc1 (stereo not given)	27%
COc1cc2ncc3c(-c4ccccc4)nn(CC(=O)NC4CCCCC4)c3c2cc1OC	-3%
COc1ccc(Cn2ccc3nc(C)c(C(=O)Nc4cccc(SC)c4)cc3c2=O)cc1	15%
CCCCN(Cc1cccs1)S(=O)(=O)c1cc(-c2cc(C)no2)ccc1C	4%
CCOC(=O)C1=C(CN2CCN(c3ccc(OC)cc3)CC2)NC(=O)NC1c1ccc(Cl)cc1 (stereo not given)	22%
CCc1ccc(-c2nc(CN3CCCC(C(=O)N4CCN(c5cc(Cl)ccc5C)CC4)C3)c(C)o2)cc1 (stereo not given)	25%
Nc1ncc(S(=O)(=O)NCc2ccc(Cl)cc2)cn1	0%
CC(=O)c1ccc(N2CCN(C3C(=O)c4ccccc4N3C(C)=O)CC2)cc1 (stereo not given)	-1%
CCOc1cc(Cn2c(-c3ccc(O)c(OCC)c3)nc3ccccc32)ccc1O	-7%
Cc1ccc2nc(-c3cccnc3)c(Nc3ccc(C(C)C)cc3)n2c1	-1%
CSc1nnc2n(-c3cccc(C)c3)c(=O)c3c4c(sc3n12)CCCC4	-1%
Cc1cc(C)cc(NS(=O)(=O)c2ccc(-c3cc(C)no3)s2)c1	24%
Cn1ccc2c(OCC(=O)Nc3ccc([N+](=O)[O-])cc3)cccc2c1=O	-2%
COc1cc(NC(=O)CSC2=Nc3ccccc3N=C(c3ccc(F)cc3)C2)cc(OC)c1	-21%
Cc1ccc(NC(=O)c2oc3c(c2C)-c2[nH]ncc2CC3)c(Cl)c1	-2%
CCc1nnc2c3ccccc3nc(Nc3ccccc3OC)n12	4%
Cc1ccc(NC(=O)C(=O)NCC(c2cccnc2)N2CCN(c3ccccc3F)CC2)cc1Cl (stereo not given)	-8%
O=C(c1ccc2c(c1)N(Cc1ccccc1)C(=O)c1ccccc1S2(=O)=O)N1CCC(Cc2ccccc2)CC1	2%
COc1ccc(OC(=O)c2cc(-c3ccc4c(c3)OCCO4)on2)cc1	-3%
CCOc1ccc(NC(=O)CC2C(=O)N(c3cccc(C)c3)C(=O)N2CCC2=CCCCC2)cc1 (stereo not given)	?
CC(=O)c1ccc(NS(=O)(=O)c2ccc3[nH]c(=O)[nH]c3c2)cc1	-4%
CCOC(=O)c1c(C)[nH]c(C)c1S(=O)(=O)N1CCCC(C(=O)NCc2ccc(Cl)cc2)C1 (stereo not given)	1%
COc1cccc2c1ncc1c(-c3ccc(C)cc3)nn(-c3ccc(F)cc3)c12	6%
CCc1cccc(NC(=O)CSc2ncccc2C(=O)Oc2ccccc2Cl)c1	5%
FC(F)(F)c1ccc2c(c1)ncc1c(-c3ccccc3)nn(-c3ccccc3)c12	-8%
COc1ccccc1C(=O)NC1(C(F)(F)F)NC(=O)N(CCc2ccccc2)C1=O (stereo not given)	-6%

Among those listed so far, these contain a furan ring, fused or not:
SMILES	miR-21 FLuc
Cc1cccc(CN2CCC(CNC(=O)c3c(C)oc4ncnc(N5CCCCC5)c34)CC2)c1	-5%
Cc1csc2nc(COc3ccccc3NC(=O)c3ccco3)cc(=O)n12	-2%
Cc1cc2nc(-c3cc(NC(=O)c4cc5ccccc5o4)ccc3Cl)oc2cc1C	-19%
CCc1nn(CC(=O)NCCN(CC)CC)c(=O)c2cc3occc3n12	-4%
Cc1ccc(NC(=O)c2oc3c(c2C)-c2[nH]ncc2CC3)c(Cl)c1	-2%

Additional records:
SMILES	miR-21 FLuc
O=C(c1ccc2c(c1)N(Cc1ccccc1F)C(=O)c1ccccc1S2(=O)=O)N1CCC(Cc2ccccc2)CC1	2%
COc1ccc(NC(=O)c2ccc3c(=O)n4nc(Nc5cccc(Cl)c5C)sc4nc3c2)cc1	-5%
COc1ccccc1-c1nc(SCC(=O)Nc2ccc(C)c(C)c2)n[nH]1	11%
CC(=O)c1cccc(NC(=O)CSc2nc(=O)n(Cc3ccco3)c3c2CCC3)c1	3%
CCOC(=O)c1c(C)[nH]c(C)c1S(=O)(=O)N(C)CC(=O)Nc1ccc(CC)cc1	-5%
Cc1cc(C)cc(NC(=O)CSc2nc(=O)[nH]c3c2CCC3)c1	?
COc1ccccc1CNC(=O)c1cc2sccc2n1Cc1ccc(Cl)cc1	-5%
CC(C)(CC(=O)OCC(=O)Nc1ccc(F)c(Cl)c1)CC1=NS(=O)(=O)c2ccccc2N1	?
CCOC(=O)c1sc2ncn(CC(=O)Nc3ccc(C)cc3C)c(=O)c2c1C	-7%
Cc1cccc(-n2ncc3c(Nc4c(C)cc(C)cc4C)ncnc32)c1	18%
O=C(Nc1c(C(=O)N2CCN(c3ccccc3)CC2)oc2ccccc12)c1ccco1	24%
COCCCNC(=O)C1CCN(c2nc3ccc(C)cc3[nH]2)CC1	-13%
COc1ccc(OC)c(C(=O)CN2C(=O)N(c3cc(C)cc(C)c3)S(=O)(=O)c3ccccc32)c1	-6%
COc1ccc(CC(=O)NCc2ccc3c(c2)CCN3C(=O)c2ccc(Cl)cc2)cc1	-6%
COc1ccc(CCNC(=O)c2cnc3sc(N4CCCCCC4)nn3c2=O)cc1	-7%
Cc1ccccc1NC(=O)CCC(=O)N1CC(C)Sc2ccccc21 (stereo not given)	1%
O=C(Cn1ncc2c3ccccc3n(Cc3ccc(F)cc3)c2c1=O)NC1CCCCCC1	3%
CCC(=O)N1c2ccc(S(=O)(=O)CCC(=O)Nc3ccc(Br)c(C)c3)cc2CC1C (stereo not given)	16%
CCOc1ccc(-c2nonc2NC(=O)COc2ccccc2)cc1	-4%
O=C(Nc1ccc(-c2nc3cc(Cl)ccc3o2)cc1)c1cc(Br)ccc1Cl	-50%

Quoted from the listing for reference:
SMILES	miR-21 FLuc
COc1ccc(C(=O)/C=C/c2cn(CC(O)CN3CCc4ccccc43)c3ccccc23)cc1 (stereo not given)	?
Cc1cccc(CN2CCC(CNC(=O)c3c(C)oc4ncnc(N5CCCCC5)c34)CC2)c1	-5%
COc1ccccc1N1CCN(C(=O)Cn2c(=O)nc(-c3ccccc3)c3cc(Cl)ccc32)CC1	3%
COC(=O)c1ccc([C@H]2Nc3ccc(S(=O)(=O)Nc4ccc(C)cc4)cc3[C@H]3C=CC[C@H]32)cc1	4%
CCc1sc(Nc2ccc(Cl)cc2)nc1-c1cc2cccc(OC)c2oc1=O	7%

Further entries:
SMILES	miR-21 FLuc
Cc1cccc2c1-c1sc(C(=O)N3CCN(c4ccccc4)CC3)cc1CO2	-9%
Cc1nc2cc(-c3ccccc3)nn2c(C)c1CCC(=O)NCCc1ccccc1	10%
COc1ccccc1Cc1nc2ccccc2nc1SCC(=O)N(C)c1ccc(F)cc1	-5%
CN(Cc1ccccc1)C(=O)C(=O)Nc1ccc2nc3n(c(=O)c2c1)CCCCC3	15%
CCOC(=O)CCN(c1ccccc1)S(=O)(=O)c1cc(-c2cc(C)no2)ccc1C	5%
CCc1nn2c(=O)cc(COC(=O)c3ccc(NC(=O)c4cccs4)cc3)nc2s1	2%
COc1ccc(NC(=O)CSC2=Nc3ccccc3C3=NC(Cc4ccccc4)C(=O)N23)cc1Cl (stereo not given)	-7%
Cn1ccc2cc(S(=O)(=O)N3CCN(C(=O)Nc4ccccc4F)CC3)ccc21	-12%
O=C(NCc1ccccc1Cl)c1cnc(N2CCOCC2)c2ccccc12	-9%
COc1ccc2oc(=O)c(-c3nc4ccc(C)cc4[nH]3)cc2c1	3%
COc1ccc(-c2noc(CCC(=O)Nc3ccccc3Cl)n2)cc1OC	-13%
Cc1nc(N2CCCC2)c2c(C(=O)N3CCN(c4ccc(F)cc4)CC3)c(C)oc2n1	1%
Cc1cc(C)cc(OCCSc2nc3ccc(NC(=O)c4ccc5c(c4)OCO5)cc3s2)c1	3%
CCC(C(=O)N1CCN(c2cc(C)ccc2C)CC1)n1nc(C)n2c(cc3occc32)c1=O (stereo not given)	20%
Cc1ccc(-c2nn3c(=O)cc(CN4CCN(C(=O)Nc5cccc(C(F)(F)F)c5)CC4)nc3s2)cc1	-2%
COc1ccc(-c2csc3ncnc(Nc4ccc(OC)c(OC)c4)c23)cc1	20%
Cc1cccc(NC(=O)Cn2c(=O)n(CCC(C)C)c(=O)c3cccnc32)c1	1%
CC1CCCN(CCCNC(=O)c2cc(Sc3ccc(F)cc3)nc3ccccc23)C1 (stereo not given)	1%
CCOC(=O)c1cc(C)n(CC2CCC(C(=O)Nc3cc(OC)cc(OC)c3)CC2)c1C (stereo not given)	?
Cc1ccc(C)c(N2CCN(S(=O)(=O)c3ccc4c(c3)C(C(C)C)C(=O)N4)CC2)c1 (stereo not given)	13%
COC(=O)c1ccc(Nc2nc(-c3ccccc3Cl)nc3ccccc23)cc1	-2%
CCOC(=O)c1cccc(NC(=O)c2oc3c(c2C)-c2[nH]ncc2CC3)c1	-2%
CCOc1ccc(CNC(=O)CCc2c(C)nn(-c3ccc(N4CCOCC4)nn3)c2C)cc1	-6%
O=C(CSc1nncn2c1cc1sccc12)Nc1ccccc1C(F)(F)F	-7%
COc1ccccc1CNC(=O)c1ccc(N2Cc3cccc(OC)c3Oc3ncccc32)s1	-5%
Cc1ccccc1NCc1cccn1-c1nnc(N2CCC(C)CC2)s1	-16%
CCOc1ccccc1NC(=O)c1c(NCc2ccc(OC)c(OC)c2OC)sc2c1CCC(C)C2 (stereo not given)	0%
CN1CCN(C(=O)c2ccc3c(c2)N(Cc2ccc(F)cc2)C(=O)c2ccccc2S3(=O)=O)CC1	5%
CCC(CC)C(=O)N1c2ccccc2C(C)(c2ccccc2)CC1(C)C (stereo not given)	2%
O=C(Nc1cc2c(cc1C(=O)c1ccc(Br)cc1)OCCO2)c1ccc(Cl)cc1	1%
O=C(CN1N=C(c2ccc(Cl)cc2)CCC1=O)NCCc1ccc(Cl)cc1	10%
Cc1nn(CCCC(=O)NCc2cccc(F)c2)c(=O)c2nn(-c3ccccc3)c(C)c12	-5%
Cc1cccc(C(=O)NC2(C(F)(F)F)N=C(c3ccccc3)N(C3CCCCC3)C2=O)c1 (stereo not given)	-3%
CCOC(=O)c1cc(OC(=O)c2cc(OC)cc(OC)c2)n(-c2ccccc2)n1	4%

Reformatted bar-delimited: entries from further up.
Molecule | miR-21 FLuc
Cc1nc2cc(-c3ccccc3)nn2c(C)c1CCC(=O)NCCc1ccccc1 | 10%
Cc1ccc(-c2nn3c(=O)cc(CN4CCN(C(=O)Nc5cccc(C(F)(F)F)c5)CC4)nc3s2)cc1 | -2%
COc1ccc(-n2c(=O)c3sc4ccccc4c3n(CC(=O)N3CCCC3)c2=O)cc1 | -1%

An excerpt; rates above refer to the full screens.
